WNV protease inh = inhibitors of WNV NS2B-NS3 protease, primary screen, biochemical, fluorogenic substrate. Genome polyprotein (West Nile virus), P06935. fluorogenic substrate Ex360/Em465; active compounds read low. z-score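 (tested at a level between 10 and 100 µM)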. hit rate 0.18% among 65,000;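 active = z-score at -3 or under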;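 note: score is relative to mean and spread of the compound wells of a plate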
Target sequence (P06935 1371-1501 limits assumed): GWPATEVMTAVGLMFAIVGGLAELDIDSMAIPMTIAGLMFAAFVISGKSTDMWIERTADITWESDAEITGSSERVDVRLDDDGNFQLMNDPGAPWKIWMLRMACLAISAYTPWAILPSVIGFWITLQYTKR
Target sequence (P06935 1502-1679 limits assumed): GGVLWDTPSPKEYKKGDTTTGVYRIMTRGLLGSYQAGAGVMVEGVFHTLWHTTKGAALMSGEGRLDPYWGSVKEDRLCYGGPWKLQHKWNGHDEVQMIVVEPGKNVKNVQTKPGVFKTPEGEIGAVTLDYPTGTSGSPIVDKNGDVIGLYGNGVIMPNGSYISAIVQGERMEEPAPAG
* hit, by the source's call. Some of the compounds tested; rates above refer to the full screens.

The opening 15 records, ahead of the listing:
SMILES	WNV protease inh
O=C(O)c1ccnc(C(=O)O)c1	2.5
COc1nc(Nc2cccc(C)c2)nc(N2CCCCC2)n1	-0.59
Cc1c(C(=O)N2CCCc3ccccc32)sc2nc(-c3ccccc3)cn12	-0.09
CC12CCC(C(=O)NCc3ccc4c(c3)OCO4)(OC1=O)C2(C)C (configuration not stated)	0.65
Cc1ccc(N(C(=O)C2CCC(=O)N2)C2(C(=O)NC3CCCCC3)CCCCC2)cc1 (configuration not stated)	-0.44
O=C(Nc1ccc2c(c1)OCCO2)C1CCN(S(=O)(=O)c2ccc(Br)s2)CC1	-0.76
O=C(Nc1ccccc1NC(=O)NC1CCCCC1)NC1CCCCC1	0.56
CCC(=O)Nc1nonc1-c1nc2ccccc2n1Cc1ccccc1	-1.3
Cc1ccccc1-c1nc(CN2CCC(C(=O)NC3CCN(Cc4ccccc4)CC3)CC2)c(C)o1	-0.01
CC(=O)c1cc2c(cc1NC(=O)CSc1nc3ccccc3o1)OCO2	-0.33
O=C(CSc1nccn1-c1ccccc1)NCc1ccc2c(c1)OCO2	-0.09
Cc1cc(Oc2ccccc2)nc2ccc(O)cc12	-0.49
O=C(Nc1ccc2c(c1)OCO2)C1CCN(S(=O)(=O)c2ccc3c(c2)OCCO3)CC1	1.9
CC(=O)c1cccc(NC(=O)C2CCCC2)c1	-0.75
O=C(c1ccc(F)cc1)N1CCCCC(Sc2nnc3ccccn23)C1=O (configuration not stated)	0.15

All compounds of this part, from the start:
SMILES	WNV protease inh
O=C(O)c1ccnc(C(=O)O)c1	2.5
COc1nc(Nc2cccc(C)c2)nc(N2CCCCC2)n1	-0.59
Cc1c(C(=O)N2CCCc3ccccc32)sc2nc(-c3ccccc3)cn12	-0.09
CC12CCC(C(=O)NCc3ccc4c(c3)OCO4)(OC1=O)C2(C)C (configuration not stated)	0.65
Cc1ccc(N(C(=O)C2CCC(=O)N2)C2(C(=O)NC3CCCCC3)CCCCC2)cc1 (configuration not stated)	-0.44
O=C(Nc1ccc2c(c1)OCCO2)C1CCN(S(=O)(=O)c2ccc(Br)s2)CC1	-0.76
O=C(Nc1ccccc1NC(=O)NC1CCCCC1)NC1CCCCC1	0.56
CCC(=O)Nc1nonc1-c1nc2ccccc2n1Cc1ccccc1	-1.3
Cc1ccccc1-c1nc(CN2CCC(C(=O)NC3CCN(Cc4ccccc4)CC3)CC2)c(C)o1	-0.01
CC(=O)c1cc2c(cc1NC(=O)CSc1nc3ccccc3o1)OCO2	-0.33
O=C(CSc1nccn1-c1ccccc1)NCc1ccc2c(c1)OCO2	-0.09
Cc1cc(Oc2ccccc2)nc2ccc(O)cc12	-0.49
O=C(Nc1ccc2c(c1)OCO2)C1CCN(S(=O)(=O)c2ccc3c(c2)OCCO3)CC1	1.9
CC(=O)c1cccc(NC(=O)C2CCCC2)c1	-0.75
O=C(c1ccc(F)cc1)N1CCCCC(Sc2nnc3ccccn23)C1=O (configuration not stated)	0.15
CCN(CC)C(=O)CC(c1ccc(F)cc1)c1ccco1 (configuration not stated)	-0.55
O=C(CCCn1c(=O)c2ccccc2n(Cc2ccccc2)c1=O)NCc1ccco1	-1.6
O=C(COc1ccc(Cl)cc1)NCc1nnc(SCC(=O)c2ccccc2)o1	0.35
CCOC(=O)c1c(N2C(=O)C3C4C=CC(O4)C3C2=O)sc2c1CCCC2 (configuration not stated)	0.49
CCc1cc2c(=O)n(-c3ccccc3)cnc2s1	1.4
CO[C@H]1C[C@@H]2CC[C@@H](C)[C@@](O)(O2)C(=O)C(=O)N2CCCC[C@H]2C(=O)O[C@H]([C@H](C)C[C@@H]2CC[C@@H](O)[C@H](OC)C2)CC(=O)[C@H](C)C=C(C)[C@@H](O)[C@@H](OC)C(=O)[C@H](C)C[C@H](C)C=CC=CC=C1C	-0.31
Cc1ccc(OCCn2c(=O)cnc3ccccc32)cc1	1.3
COc1ccc(N2CCN(CCNC(=O)CCCn3c(=O)[nH]c4cc(Cl)ccc4c3=O)CC2)cc1	-0.59
CCN(CCNC(=O)CN1CCN(Cc2ccc(Cl)cc2)C1=O)c1ccccc1	-1
Cc1cc(Nc2ccc(F)c(Cl)c2)n2ncnc2n1	0.99
N#Cc1c(-c2ccccc2)cc(-c2ccco2)c(C#N)c1N	1.5
OCCCc1nc2n(n1)C(c1cccs1)C=C(c1ccccc1)N2 (configuration not stated)	0.19
COc1ccc(-c2noc(CCC(=O)N(C)c3cccc(C)c3)n2)cc1	-1.1
CS(=O)(=O)N(CC(=O)N1CCN(c2ccccc2F)CC1)c1cc(C(F)(F)F)ccc1Cl	0.34
COc1cccc(C(=O)NCC2CCCO2)c1 (configuration not stated)	-0.49
NC(=O)CNC1CC(=O)N(CCc2ccccc2)C1=O (configuration not stated)	1.2
COCCNC(=O)Cc1cn(C)c2ccccc12	0.19
O=C(NCc1nnc(SCC(=O)N2CCCC2)o1)c1c(F)cccc1Cl	0.11
Cc1nnc(SCC(=O)Nc2ccccc2NC(=O)CSc2nnc(C)s2)s1	0.59
O=C(CC(c1ccccc1O)N1CCCCC1)N1CCCCC1 (configuration not stated)	-0.33
CCc1nccn1S(=O)(=O)c1cc(Br)ccc1OC	-1.3
CC(NC(=O)CSc1ncnc2nc[nH]c12)c1ccccc1 (configuration not stated)	-0.72
CCOC(=O)N1CCC(NC(=O)C2CCN(C(=O)N3CCOc4ccccc43)CC2)CC1	0.67
CCSc1nnc(Cc2cc(=O)[nH]c(=O)[nH]2)n1-c1ccc(Cl)cc1	-0.61
CCOc1ccc(S(=O)(=O)n2c(C)nc3ccccc32)cc1	0.02
CCOC(=O)C1=C(CS(=O)(=O)c2ccc(F)c(C)c2)NC(=O)NC1c1ccc(O)c(O)c1 (configuration not stated)	1.6
CCOc1cccc(NC(=O)c2ccc(S(=O)(=O)N3CCCC3)cc2)c1	-0.32
Cc1ccccc1-c1nnc(-c2ccc(Cl)cc2)o1	-0.47
Cc1noc(C)c1S(=O)(=O)NCCCN1CCN(Cc2ccccc2)CC1	-0.87
O=C(Nc1ccc(C(=O)Oc2ccccc2)c(O)c1)c1ccco1	-0.56
COC(=O)NCCOC(=O)N(O)c1ccc(Br)cc1	-1.2
O=C(Nc1c(C(=O)N2CCOCC2)cnn1-c1ccccc1)c1ccco1	-0.26
Cc1ccc(S(=O)(=O)N(C)CCCC(=O)Nc2ccccn2)cc1	0.65
Cn1c(=O)c2cc(S(=O)(=O)Nc3cccc(F)c3)ccc2n(C)c1=O	-1.1
Cc1cccc(Cc2c(C)nc3nc(SCC(=O)NCc4ccco4)nn3c2C)c1	-0.86
NC(=O)C1CCCNC1 (configuration not stated)	1.3
Cc1cc(C)cc(OCC(=O)Nc2cccc(-c3nc4ncccc4o3)c2)c1	0.09
c1csc(Cn2c(-c3cccs3)nc3ccccc32)c1	0.23
COc1ccc(N2CSC3=C(C#N)C(c4cc(OC)ccc4OC)CC(=O)N3C2)c(OC)c1 (configuration not stated)	0.01
CCCc1[nH]nc2c1C(C1CC=CCC1)C(C#N)=C(N)O2 (configuration not stated)	1.6
CCC(CC)C(=O)NCCc1ccc(OC)c(OC)c1	-1.1
Cn1cnc2nc3n(c2c1=O)CCC3	2.4
COc1ccccc1NC(=O)CCc1nc(-c2cccs2)no1	0.24
O=C(C1CCN(S(=O)(=O)c2cccnc2)CC1)N1CCN(C2CCCC2)CC1	1.1
CCOC(=O)CCSc1nc(C)cc(C(F)(F)F)c1C#N	-0.0066
Remaining list, next part
SMILES	WNV protease inh
CN1CC(=O)N/C1=N\C(=O)Nc1ccc2c(c1)N(C)C(=O)CS2	-0.89
O=C(CNC(=O)c1ccco1)OCc1ccc(C(=O)Oc2ccccc2)cc1	0.4
CN1C(=O)c2ccccc2C(C(=O)NCCCN2CCCC2=O)C1c1c[nH]c2ccccc12 (configuration not stated)	-0.53
CC(C)N1C(=O)C2C(c3ccccc3O)NC(C)(C(=O)O)C2C1=O (configuration not stated)	1.5
CCC1CCCCN1C(=O)CSc1nnc(CNC(=O)c2cc(OC)c(OC)c(OC)c2)o1 (configuration not stated)	0.99
Cc1cccc(C(=O)Nc2ccccc2C(=O)OCc2c(C)noc2C)c1	-0.22
C=CCN(C(=O)c1ccccc1)c1ccc(OC)cc1	2.1
O=S(=O)(c1ccc(-c2cn3ccccc3n2)cc1)N1CCOCC1	0.51
CCOCCCNC(=O)C(NC(=O)c1ccc(=O)[nH]c1)c1ccccc1 (configuration not stated)	0.67
O=C(/C=C/Nc1ccccc1Br)c1ccccn1	1.9
CCOC(=O)Cn1c(=O)c2c(nc3n2CCCCN3c2ccc(OCC)cc2)n(C)c1=O	-0.46
COC(=O)C1=C(C)N=C2SC(C)C(=O)N2C1/C=C/c1ccccc1OC (configuration not stated)	-0.4
O=C(CN1CCN(Cc2ccccc2Cl)C1=O)NC1CCCCCC1	-0.38
O=C(Nc1cc(C(F)(F)F)ccc1N1CCOCC1)c1ccc(Br)o1	0.77
Cc1cc(C)c(C#N)c(SCC(=O)N2CCCCC2)n1	0.22
C=C(C)c1cccc(C(C)(C)NC(=O)N2CCOCC2)c1	-0.18
COc1ccc2nc(NC(=O)C3CCCN(S(=O)(=O)c4cccc5nonc45)C3)sc2c1 (configuration not stated)	-2
COCCN1C(=O)C(=O)/C(=C(/O)c2cccc(OC)c2)C1c1ccc(C)o1 (configuration not stated)	-0.00082
NC(=O)c1cc2ccc(O)cc2oc1=NCc1ccccc1	0.58
COC(=O)CCC(=O)Nc1ccc(C)cc1OC(=O)CCC(=O)OC	-1.1
O=C1c2ccccc2-c2onc3ccc(NCCCn4ccnc4)c1c23	0.59
COC(=O)c1ccc(CSc2nnc(CNC(=O)c3cccs3)o2)o1	-0.21
CCC(=O)N1CCc2cc(S(=O)(=O)N3CCc4ccccc43)ccc21	-0.12
COc1ccccc1CNC(=O)C1CCN(S(=O)(=O)c2c(C)noc2C)CC1	-0.76
COc1ccccc1OC(C)C(=O)O (configuration not stated)	0.26
Cn1c(=O)c2c(nc(SCC(=O)N3c4ccccc4CCc4ccccc43)n2C)n(C)c1=O	-0.72
CCN(CC)CCCN(Cc1cc2cc(OC)ccc2[nH]c1=O)C(=O)Nc1ccccc1	-1
CCOc1ccc2c(c1)sc(=NC(=O)C1CC1)n2C	0.46
CCOC(=O)c1c(C)n(C)c2ccc(O)c(CN3CCC(C)CC3)c12	0.77
Cc1csc(NC(=O)Cc2nn(C)c(=O)c3ccccc23)n1	-0.72
O=S(=O)(Cc1ccccc1)N1CCN(Cc2ccc3c(c2)OCO3)CC1	0.44
O=C(/N=C1\NC(=O)C(F)(C(F)(F)F)S1)NC1CCCCC1 (configuration not stated)	0.31
CCC(=O)N1CCc2cc(S(=O)(=O)CCC(=O)Nc3ccc(F)c(F)c3)ccc21	0.56
CCCC(=O)N1CC2(C)CN(C(=O)CCC)CC(CCC)(C1)C2=O	0.29
CSc1ccc(S(=O)(=O)Nc2ccc3c(c2)OCCO3)cc1	0.58
O=C(Nc1cccnc1)C1CCCN(S(=O)(=O)c2cccc3nsnc23)C1 (configuration not stated)	0.7
CC(C)c1ccc(NC(=O)C2C3C=CC4(CN(CCCN5CCOCC5)C(=O)C24)O3)cc1 (configuration not stated)	0.17
CCOc1ccc(C(C)=O)cc1N1C(=O)C2C3C=CC(C3=C(C)C)C2C1=O (configuration not stated)	-0.63
CC1CC(C)CN(CCC(=O)Nc2cccc(Cl)c2)C1 (configuration not stated)	0.03
COC(=O)c1c(-c2cccc(OC)c2)csc1N	-1.9
Cc1cc2cc(CNC(=O)c3ccc(S(=O)(=O)N4CCOCC4)cc3)ccc2[nH]1	0.28
c1ccc2c(c1)OCC(CNc1ncnc3nc[nH]c13)O2 (configuration not stated)	-1.5
O=C(CSc1nnc(CNC(=O)c2cccs2)o1)c1ccc(Cl)cc1	1.2
O=C(CSc1nnc(CNC(=O)c2ccco2)o1)NC1CCCC1	-1.3
O=S(=O)(Cc1ccccc1)N1CCc2ccccc2C1	0.51
CCOc1ccc(CN2CCC(C(=O)N3CCN(c4ccccc4F)CC3)CC2)cc1OC	0.15
CCn1c(=O)cc(OCC(=O)N2CCCCCC2)c2ccccc21	1.1
O=C(O)CCc1ccc(-c2cccs2)n1NC(=O)c1ccc(Cl)cc1	0.16
CCC(C(=O)Nc1ncn[nH]1)(C(F)(F)F)C(F)(F)F	-1.9
O=C(CCNS(=O)(=O)c1cccc2nsnc12)NCc1cccs1	0.38
COC(=O)c1c(C(=O)OC)c2n(c1C)CCC2	-1.1
CCOC(=O)c1c(NC(=O)CNCC(O)CO)sc(C)c1C (configuration not stated)	-0.45
CCN(CC)Cc1c(C(=O)OC)nnn1-c1nonc1N	0.11
O=C(NCc1ccccc1)c1cccc(S(=O)(=O)N2CCOCC2)c1	-0.66
CN(C)c1oc(-c2ccccc2)nc1C#N	-1
O=C(CSc1nnc(CNC(=O)c2ccccc2F)o1)NCCc1ccccc1	0.26
Cc1cc(NC(=O)c2ccc(S(=O)(=O)N3CCCC3)cc2)nc2c1c(=O)oc1ccccc12	-0.59
Cn1c(SCC(=O)N2CCOCC2)nnc1-c1ccc(NC(=O)c2ccccc2F)cc1	-0.35
CCOC(=O)c1ccc(NC(=O)Nc2ccc3c4c(cccc24)C(=O)N3CC)cc1	2.6
O=C(CSCCO)Nc1cccc2ccccc12	0.42
(further entries)
SMILES	WNV protease inh
CCOC(=O)COc1ccc(S(=O)(=O)Nc2ccc3c(c2)OCCO3)cc1	0.28
Cc1cccnc1NCC(O)COc1ccccc1 (configuration not stated)	0.00088
O=C(CSc1cn(Cc2ccccc2)c2ccccc12)Nc1nccs1	-0.68
COc1ccccc1CNC(=O)CCCn1c(=O)c2ccccc2n(CC(=O)NC2CCCC2)c1=O	-0.96
CCOCC(=O)NCc1ccc2c(c1)cc(C)n2C	-0.69
Cc1c(S(=O)(=O)Nc2ccc3c(c2)OCCO3)c(=O)n(C)c(=O)n1C	0.59
CC(=O)OCC1=C(C(=O)O)N2C(=O)[C@@H](NC(=O)Cc3cccs3)[C@H]2SC1	0.31
CCOC(=O)C1CCN(C(=O)C2CCN(S(=O)(=O)c3c(C)noc3C)CC2)CC1	-0.79
NC(=O)c1cc2n(n1)C(C(F)(F)F)CC(c1ccco1)N2 (configuration not stated)	0.44

Two entries from above in a different format.
Compound | WNV protease inh
CCC(=O)Nc1nonc1-c1nc2ccccc2n1Cc1ccccc1 | -1.3
Cc1ccccc1-c1nc(CN2CCC(C(=O)NC3CCN(Cc4ccccc4)CC3)CC2)c(C)o1 | -0.01
